Bioassay records from PubChem.
NPYLR7 agonist = mosquito NPYLR7 agonism; 270,000 tested, 0.15% active; HEK293T NPYLR7/Galpha15, GCaMP6s calcium fluorescence; activation, % at 10 µM; AID 1259423; in the data active = activation above about 40%;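 note: 0% = vehicle and 100% = reference agonist at the receptor; some compounds past the cut are filed as inactive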
NPYLR7 agonist max-min = recorded beside NPYLR7 agonist, whose call it bears; activation, %; measured here: Max-Min RFU normalised activation; some inactives read as strong as hits;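 span of the calcium signal over five minutes; 0% = vehicle and 100% = native peptide agonist; compound fluorescence can raise it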
An asterisk follows results filed as active. Not all compounds are listed; count on the stated rates, not on these rows.

O=C(Cn1c2ccccc2c2nc3cc(F)ccc3nc21)c1ccccc1 was read as NPYLR7 agonist -9 and NPYLR7 agonist max-min -13.
`COc1cnc(-c2cccc(C(F)(F)F)c2)c(NC(=O)C(C)C)n1` gave NPYLR7 agonist 16 and NPYLR7 agonist max-min 6.
`Cc1cc(C(C)(C)C)cc(C)c1S(=O)(=O)N1CCN(C(=O)c2cccnc2)CC1` gave NPYLR7 agonist -1 and NPYLR7 agonist max-min 0.
COc1cccc(CNC(=O)CCC2CCCN(C(=O)c3snnc3C)C2)c1 (centres undefined) was read as NPYLR7 agonist 5 and NPYLR7 agonist max-min 2.
`Cc1ccc(-n2ncc3c(=O)n(NC(=O)COc4ccc(F)cc4)cnc32)cc1` gave NPYLR7 agonist 3 and NPYLR7 agonist max-min 1.
COc1cc(-c2nccn2-c2cccc(-n3cnnn3)c2)cc(OC)c1OC was read as NPYLR7 agonist 2 and NPYLR7 agonist max-min 1.
For O=C(Nc1ccc(-c2nc3ccccc3o2)cc1)c1cccc([N+](=O)[O-])c1 the results were NPYLR7 agonist 0 and NPYLR7 agonist max-min -1.
Screening Cc1cccc2nc(CNS(=O)(=O)c3ccc(F)c(C#N)c3)cn12 returned NPYLR7 agonist 16 and NPYLR7 agonist max-min 5.
`CCOC(=O)c1sc(=NC(=O)c2ccccc2)n(C)c1C` gave NPYLR7 agonist -1 and NPYLR7 agonist max-min 1.
For CC1=NN(C2=NS(=O)(=O)c3ccccc32)C(C)(O)C1 (centres undefined) the results were NPYLR7 agonist -1 and NPYLR7 agonist max-min -4.

Among those listed so far, four contain fluorine.
O=C(Cn1c2ccccc2c2nc3cc(F)ccc3nc21)c1ccccc1 was read as NPYLR7 agonist -9 and NPYLR7 agonist max-min -13.
`COc1cnc(-c2cccc(C(F)(F)F)c2)c(NC(=O)C(C)C)n1` gave NPYLR7 agonist 16 and NPYLR7 agonist max-min 6.
`Cc1ccc(-n2ncc3c(=O)n(NC(=O)COc4ccc(F)cc4)cnc32)cc1` gave NPYLR7 agonist 3 and NPYLR7 agonist max-min 1.
Screening Cc1cccc2nc(CNS(=O)(=O)c3ccc(F)c(C#N)c3)cn12 returned NPYLR7 agonist 16 and NPYLR7 agonist max-min 5.

The listing continues:
Cc1ccccc1CNC(=O)c1c(OCC2CC2)nn2ccsc12 was read as NPYLR7 agonist 26 and NPYLR7 agonist max-min 21.
For CC(C)NC(=O)C1=COC2=NC(=O)N(Cc3ccccc3C(F)(F)F)CCN12 the results were NPYLR7 agonist 1 and NPYLR7 agonist max-min -3.
`CN(C(=O)c1nc(-c2ccc(F)cc2)n2c1CCCCC2)C1CCS(=O)(=O)C1` (centres undefined) gave NPYLR7 agonist 4 and NPYLR7 agonist max-min 1.
`COc1ccc(C(=O)Nc2nc(-c3ccccc3)cs2)cc1` gave NPYLR7 agonist -1 and NPYLR7 agonist max-min -2.
`CN1C(=O)C2(CCN(C(=O)CCc3ccc(=O)[nH]n3)CC2)c2ccccc21` gave NPYLR7 agonist -4 and NPYLR7 agonist max-min -4.
Screening CCn1c(C2CCCN(Cc3cccn3-c3nccs3)C2)nn(C)c1=O (centres undefined) returned NPYLR7 agonist 7 and NPYLR7 agonist max-min 4.
Nc1cc(-c2ccc(CO)cc2)ccn1 was read as NPYLR7 agonist 1 and NPYLR7 agonist max-min 0.
Screening NC(=S)NN=Cc1ccc(-c2ccc(SC(F)F)cc2)o1 returned NPYLR7 agonist 7 and NPYLR7 agonist max-min 7.
Cc1c(O)ccc2c(-c3ccccc3)cc(=O)oc12 was read as NPYLR7 agonist 0 and NPYLR7 agonist max-min -8.
For O=C(NCc1ccccn1)C1CNCCN1C(=O)CCn1ccccc1=O (centres undefined) the results were NPYLR7 agonist 4 and NPYLR7 agonist max-min 2.
For CC(C)C(=O)N1CCN(Cn2nc(-c3ccc(F)cc3)oc2=S)CC1 the results were NPYLR7 agonist 19 and NPYLR7 agonist max-min 7.
For Cc1cc(C)cc(OCC(=O)N2CCN(c3nccs3)CC2)c1 the results were NPYLR7 agonist 2 and NPYLR7 agonist max-min 1.
For CCNC(=O)CN1CCN(C(=O)C/C=C/c2ccccc2F)CC1 the results were NPYLR7 agonist 3 and NPYLR7 agonist max-min 1.
`COc1ccc(OC)c(C2c3[nH]c4ccccc4c3CCN2C(=O)Nc2ccc(Cl)c(C(F)(F)F)c2)c1` (centres undefined) gave NPYLR7 agonist 37 and NPYLR7 agonist max-min 18.
Screening Cn1c(C(=O)N2CCc3c(nc(N)[nH]c3=O)C2)cc2ccccc21 returned NPYLR7 agonist 9 and NPYLR7 agonist max-min 6.
`O=C(c1cn[nH]n1)N1CCc2nnc(CCc3ccccc3)n2CC1` gave NPYLR7 agonist 5 and NPYLR7 agonist max-min -4.
For O=C(CCN(CCCN1CCOCC1)c1nc(-c2ccco2)nc2ccccc12)NCc1cccc(C(F)(F)F)c1 the results were NPYLR7 agonist 18 and NPYLR7 agonist max-min 17.
For Cc1ccc(OCCn2c(S(=O)(=O)O)nc3c(N)ncnc32)cc1 the results were NPYLR7 agonist -13 and NPYLR7 agonist max-min -16.
`Cc1sc2ncnc(N3CCN(C(c4ccccc4)c4ccccc4)CC3)c2c1C` gave NPYLR7 agonist 16 and NPYLR7 agonist max-min 7.
COc1cccc(COc2coc(CN3CCCN(S(=O)(=O)c4ccc5c(c4)CN(C(=O)C(F)(F)F)CC5)CC3)cc2=O)c1 was read as NPYLR7 agonist 33 and NPYLR7 agonist max-min 24.

At a glance, part of the list above.
For Cc1cc(C)cc(OCC(=O)N2CCN(c3nccs3)CC2)c1 the results were NPYLR7 agonist 2 and NPYLR7 agonist max-min 1.
For CCNC(=O)CN1CCN(C(=O)C/C=C/c2ccccc2F)CC1 the results were NPYLR7 agonist 3 and NPYLR7 agonist max-min 1.

(listing goes on)
Screening C=CCN(CC=C)C(=O)c1cc(CCC)[nH]n1 returned NPYLR7 agonist 4 and NPYLR7 agonist max-min 1.
Screening O=C(C(c1ccccc1)c1ccccc1)N1CCN(CCCOC(c2ccc(Cl)cc2)c2ccc(Cl)cc2)CC1 returned NPYLR7 agonist 4 and NPYLR7 agonist max-min 3.
CCc1nc2n(n1)C(=O)C(C(c1cccc(Cl)c1)N1CCCCC1)S2 (centres undefined) was read as NPYLR7 agonist -1 and NPYLR7 agonist max-min 4.
CC(C)(C)NNC(=O)c1cccc(C(=O)NNC(C)(C)C)c1 was read as NPYLR7 agonist -3 and NPYLR7 agonist max-min -3.
`CN(Cc1ccccc1)c1cc(Cl)nc(SCc2cccc(C(=O)N3CCC(Cc4ccccc4)CC3)c2)n1` gave NPYLR7 agonist 14 and NPYLR7 agonist max-min 20.
`COc1ccccc1-c1cc(-c2ccccc2)nc(SC(C(N)=O)c2ccccc2)c1C#N` (centres undefined) gave NPYLR7 agonist 8 and NPYLR7 agonist max-min 4.
`Cc1cc(C)n(-c2ccc(NC(=O)C3CCCCN3C(=O)c3ocnc3C)cc2)n1` (centres undefined) gave NPYLR7 agonist 9 and NPYLR7 agonist max-min 5.
Screening O=P1(NCCc2ccccc2)C=C(c2ccccc2)OC(c2ccccc2)=C1 returned NPYLR7 agonist 1 and NPYLR7 agonist max-min 0.
For CCC(=O)N(c1nnc(SCC(=O)c2cc(C)n(-c3cc(C)on3)c2C)s1)C1CC1 the results were NPYLR7 agonist -1 and NPYLR7 agonist max-min 8.
For O=C(COc1cccc(F)c1)Nc1c(F)cccc1F the results were NPYLR7 agonist -8 and NPYLR7 agonist max-min 3.
Cc1ccc(S(=O)(=O)NC(=O)Nc2cc(Cl)ccc2Oc2ccccc2)cc1 was read as NPYLR7 agonist 3 and NPYLR7 agonist max-min 1.
COc1ccc(Cn2c(-c3ccc(Cl)c(F)c3)nc3ccccc3c2=O)c(OC)c1 was read as NPYLR7 agonist 7 and NPYLR7 agonist max-min 4.
Screening CCOC(=O)C1(Cc2ccccc2)CCN(Cc2ccc(Sc3nncn3C)o2)CC1 returned NPYLR7 agonist 6 and NPYLR7 agonist max-min 1.
Screening CC1Oc2c(C(=O)Nc3cccc(C(N)=O)c3)cccc2C1C (centres undefined) returned NPYLR7 agonist -2 and NPYLR7 agonist max-min -4.
For CCC(CC)C(=O)N(C)c1c(C)nc2ccc(C(=O)NCCNC(C)=O)cn12 the results were NPYLR7 agonist 14 and NPYLR7 agonist max-min 9.
`COC(=O)c1cccc(CN2C(=O)C(C)Sc3ccccc32)c1` (centres undefined) gave NPYLR7 agonist 0 and NPYLR7 agonist max-min 12.
`CCn1c(SCc2ccc(C(=O)NCc3ccco3)cc2)nnc1-c1cccs1` gave NPYLR7 agonist 2 and NPYLR7 agonist max-min 15.
Screening Cc1ccc(Cn2c(C)c(C)n3c4c(=O)[nH]c(=O)n(C)c4nc23)cc1 returned NPYLR7 agonist -7 and NPYLR7 agonist max-min -7.
Screening CC(C)CCN(Cc1ccc(OS(C)(=O)=O)cc1)S(=O)(=O)c1ccccc1 returned NPYLR7 agonist 13 and NPYLR7 agonist max-min 22.
O=C(NN=Cc1ccc(O)cc1O)c1ccncc1 was read as NPYLR7 agonist 0 and NPYLR7 agonist max-min -2.
`CCc1ccc(CN2CCC(n3nccc3NC(=O)Nc3cccc(F)c3)CC2)o1` gave NPYLR7 agonist 4 and NPYLR7 agonist max-min 3.
`CC1CC(C)CN(C(=O)COC(=O)C2CCN(C(=O)NC3CC3)CC2)C1` (centres undefined) gave NPYLR7 agonist 8 and NPYLR7 agonist max-min 5.
Screening CCn1nnnc1SCc1ccc(C(=O)N2C3CCC2CC(Oc2ccc4c(c2)OCO4)C3)cc1 (centres undefined) returned NPYLR7 agonist 0 and NPYLR7 agonist max-min 7.
COc1ccc(NC2CCCN(C(=O)c3ccccc3C(F)(F)F)C2)cc1OC (centres undefined) was read as NPYLR7 agonist 1 and NPYLR7 agonist max-min -6.
Screening O=C(NS(=O)(=O)Cc1cc(-c2ccccc2)no1)C1CCOCC1 returned NPYLR7 agonist 1 and NPYLR7 agonist max-min 0.
`O=c1cc(Cn2ccnc2)c2cc3c(cc2o1)CCC3` gave NPYLR7 agonist 9 and NPYLR7 agonist max-min 8.
`CCOC(=O)C(NC(C)=O)(Nc1ccc(S(=O)(=O)Nc2ccncn2)cc1)C(F)(F)F` (centres undefined) gave NPYLR7 agonist 5 and NPYLR7 agonist max-min 5.
For Cc1ccccc1-c1nc2ccccn2c1NC1CCCCC1 the results were NPYLR7 agonist -4 and NPYLR7 agonist max-min -3.
O=C(O)c1cc(Br)nn1-c1ccc(F)cc1 was read as NPYLR7 agonist -4 and NPYLR7 agonist max-min -4.
Screening CCC(Nc1ncnc2sccc12)c1cccc(S(N)(=O)=O)c1 (centres undefined) returned NPYLR7 agonist 4 and NPYLR7 agonist max-min 3.
`Nc1cc(N)nc(SCC(=O)Nc2ccc3oc4ccccc4c3c2)n1` gave NPYLR7 agonist 3 and NPYLR7 agonist max-min -1.
Screening Cc1cc(C)c(Cn2ccnc2CNCc2cccnc2)c(C)c1 returned NPYLR7 agonist 11 and NPYLR7 agonist max-min 13.
Screening CCOc1ccc(NC(=O)c2c(NC(C)=O)sc3c2CCCC3)cc1 returned NPYLR7 agonist 3 and NPYLR7 agonist max-min 0.
Screening CCc1ccc(-c2cncc(C(=O)NCCCOC)c2)cc1 returned NPYLR7 agonist 4 and NPYLR7 agonist max-min 3.
CCCCC(CC)CNC(=O)c1cnc2c(-c3ccc(F)cc3)cnn2c1C (centres undefined) was read as NPYLR7 agonist 19 and NPYLR7 agonist max-min 7.
`C=CCn1cc(CNC(C(=O)N(C)C)c2ccccc2)c(C)n1` (centres undefined) gave NPYLR7 agonist 4 and NPYLR7 agonist max-min 2.
For CCOC(=O)c1c(NC(=O)c2cc3ccccc3o2)sc(C(N)=O)c1C the results were NPYLR7 agonist 11 and NPYLR7 agonist max-min 5.
Screening Cc1nc(CNC(C)CCc2c[nH]c3ccccc23)cs1 (centres undefined) returned NPYLR7 agonist 10 and NPYLR7 agonist max-min 8.
`CN(CCc1c[nH]c2ccccc12)C(=O)CN1C(=O)C2SCCN2C(=O)c2ccccc21` (centres undefined) gave NPYLR7 agonist 3 and NPYLR7 agonist max-min 19.
`CN1CCN(c2nc(C(=O)NCC3CC3)cs2)C1=O` gave NPYLR7 agonist 0 and NPYLR7 agonist max-min 0.
Screening Cc1ccc(Nc2nn(CC(=O)Nc3cccc(F)c3)c(N)c2S(=O)(=O)c2ccccc2)cc1 returned NPYLR7 agonist 0 and NPYLR7 agonist max-min -9.
Cc1cc(C(=O)NCc2ccco2)nc2cc(-c3ccccc3)nn12 was read as NPYLR7 agonist 19 and NPYLR7 agonist max-min 21.
Screening COc1cccc(CSc2nnc(C(C)NC(=O)C(C)(C)CCl)n2-c2cc(Cl)ccc2C)c1 (centres undefined) returned NPYLR7 agonist -1 and NPYLR7 agonist max-min 11.
Screening Cc1cc(C)nc(SCc2cc(=O)c(OC(=O)c3ccccc3[N+](=O)[O-])co2)n1 returned NPYLR7 agonist -13 and NPYLR7 agonist max-min -10.
`CC(C)NC(=O)CN(C)C(=O)CCCOc1ccccc1Br` gave NPYLR7 agonist 5 and NPYLR7 agonist max-min 5.
For Cc1cc(O)c(CN2CCCC2)c2c1C(=O)/C(=C/c1ccncc1)O2 the results were NPYLR7 agonist 5 and NPYLR7 agonist max-min 5.
For O=C1CCCN1Cc1ccccc1Cn1cc(C2CC=CCC2)nn1 (centres undefined) the results were NPYLR7 agonist 5 and NPYLR7 agonist max-min 3.
`O=C(Cn1c(CO)cnc1SCc1ccc(C(F)(F)F)cc1)NC1CCCC1` gave NPYLR7 agonist 3 and NPYLR7 agonist max-min 1.
For O=C(NC1CCCC1)c1ccc(CN2CCCCC2)cc1 the results were NPYLR7 agonist -10 and NPYLR7 agonist max-min -11.

Among those listed so far, these have bromine:
O=C(O)c1cc(Br)nn1-c1ccc(F)cc1 was read as NPYLR7 agonist -4 and NPYLR7 agonist max-min -4.
`CC(C)NC(=O)CN(C)C(=O)CCCOc1ccccc1Br` gave NPYLR7 agonist 5 and NPYLR7 agonist max-min 5.
